# Compound activity deposited in PubChem BioAssay by Johns Hopkins Ion Channel Center.
# KCNQ2 inh: KCNQ2 channel blockers in CHO-K1 cells – cell-based, FluxOR thallium flux, B-score, primary screen (AID 2156) | 20 min; active compounds read low; only compounds with negative scores are shown here; some inactives read as strong as hits | B-score at 10 µM | 310,000 tested, 1.1% active | O88943;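 active = fluorescence ratio B-score at most minus 3 library SDs, with starting brightness B-score within 2 library SDs, cut at about -5.5 in these data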
# Target sequence (O88943 whole entry, looked up): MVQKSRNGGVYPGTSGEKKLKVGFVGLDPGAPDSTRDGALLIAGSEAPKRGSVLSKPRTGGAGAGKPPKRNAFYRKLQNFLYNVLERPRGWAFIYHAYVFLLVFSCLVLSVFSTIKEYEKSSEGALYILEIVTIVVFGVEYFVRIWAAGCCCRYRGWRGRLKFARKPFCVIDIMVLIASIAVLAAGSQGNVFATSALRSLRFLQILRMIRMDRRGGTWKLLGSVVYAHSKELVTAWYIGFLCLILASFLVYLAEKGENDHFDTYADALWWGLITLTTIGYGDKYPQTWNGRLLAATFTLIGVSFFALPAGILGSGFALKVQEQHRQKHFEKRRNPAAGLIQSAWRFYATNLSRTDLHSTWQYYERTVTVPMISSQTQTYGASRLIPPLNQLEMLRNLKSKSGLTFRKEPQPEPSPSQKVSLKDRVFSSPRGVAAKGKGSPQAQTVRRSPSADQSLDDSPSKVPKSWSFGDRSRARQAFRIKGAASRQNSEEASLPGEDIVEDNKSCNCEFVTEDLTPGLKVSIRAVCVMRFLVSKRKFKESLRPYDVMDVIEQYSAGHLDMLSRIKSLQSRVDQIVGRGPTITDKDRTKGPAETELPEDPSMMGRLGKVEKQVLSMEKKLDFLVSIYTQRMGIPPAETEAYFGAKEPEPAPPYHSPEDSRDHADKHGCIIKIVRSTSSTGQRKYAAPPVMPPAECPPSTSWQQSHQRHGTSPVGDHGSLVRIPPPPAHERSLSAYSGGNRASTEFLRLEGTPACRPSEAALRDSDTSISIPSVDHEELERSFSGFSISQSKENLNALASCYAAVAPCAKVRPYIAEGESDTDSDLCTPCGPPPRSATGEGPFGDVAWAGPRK
# KCNQ2 inh baseline: second read-out of KCNQ2 inh, no call of its own (marks repeat the call); B-score; measured here: initial fluorescence intensity artifact check;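 brightness before thallium and not channel activity; 0 = typical well and far values either way flag optical interference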
# * hit, by the source's call; i = inactive. Some of the compounds tested. The share of hits here may be higher or lower than overall.
no.	mol	KCNQ2 inh baseline	KCNQ2 inh
1	COC(=O)c1ccc(-c2sc3nc(N4CCOCC4)c4c(c3c2N)CCCC4)o1	-0.05	i
2	O=C1Nc2ccc(Cl)cc2C12OCCCO2	1.3	i
3	O=c1[nH]c(=O)n(C2CCCCCC2)c(O)c1C=NCc1ccc(F)cc1	0.82	i
4	COc1ccccc1CNC(=O)CCCc1ccccc1	-3	i
5	CN(C)S(=O)(=O)c1ccc(Cl)c(NC(=O)COC(=O)CNC(=O)c2ccco2)c1	1.4	i
6	Cc1cc(C)n(S(=O)(=O)c2ccc(F)cc2)n1	-0.23	i
7	COc1ccc(S(=O)(=O)N2CCCC2C(=O)Nn2cnnc2)cc1 (configuration not stated)	1.2	i
8	N=c1sccn1CC(=O)Nc1cc(S(=O)(=O)N2CCCCC2)ccc1Cl	0.63	i
9	NNc1ccc(Cc2ccc(Cl)cc2Cl)nn1	-2.2	i
10	COc1ccc(CN(C)C(C)C(=O)Nc2ccc([N+](=O)[O-])cc2Cl)cc1OC (configuration not stated)	-0.18	i
11	O=C(NC1CCN(Cc2ccccc2)CC1)C1CCN(S(=O)(=O)c2cccc3nsnc23)CC1	0.47	i
12	Cc1cccc(C(=O)O/N=C(\N)Cc2ccc([N+](=O)[O-])cc2)c1	-0.03	i
13	Cc1ccc(-c2cc(C#N)c(=O)n(Cc3c(Cl)cccc3Cl)c2)cc1	1.1	i
14	N#CC(Cc1ccccc1OC(F)F)c1nc2ccccc2[nH]1 (configuration not stated)	-0.01	i
15	O=C(NC1CCCC1)C(c1ccc(O)cc1)N(CC1CCCO1)C(=O)C1COc2ccccc2O1 (configuration not stated)	1.3	i
16	COc1ccc(C=O)c2[nH]c3c(Cl)ncnc3c12	-0.22	i
17	COc1ccc([N+](=O)[O-])cc1NC(=O)C(C)Sc1ccccc1 (configuration not stated)	0.06	i
18	Cc1ccc(NC2CCCN(C(=O)CCc3ccncc3)C2)cc1C (configuration not stated)	-2.5	i
19	CC(=O)c1ccc(NC(=O)CC(C)S(=O)(=O)c2ccc3c(c2)CCN3C(C)=O)cc1 (configuration not stated)	0.44	i
20	COc1ccc(/C(O)=C2/C(=O)C(=O)N(CCN(C)C)C2c2ccccc2)cc1Cl (configuration not stated)	-1.8	i
21	Cc1ccc(CNC(=O)C(=O)NCC2CCCN2S(=O)(=O)c2cc(C)ccc2C)cc1 (configuration not stated)	-0.21	i
22	COc1ccc(NC(=O)CSc2nccn2-c2cccc(OC)c2)cc1	-0.29	i
23	O=C(c1ccco1)N(Cc1ccccc1)c1cccc([N+](=O)[O-])c1	-0.69	i
24	O=C(Cc1cccs1)NNC(=S)NCc1ccco1	-0.69	i
25	COc1cc2c(cc1OC)C(C)N(C(=O)c1ccc(Br)o1)CC2 (configuration not stated)	1	i
26	FC(F)(F)c1ccccc1/C=N/n1c(COc2ccccc2)n[nH]c1=S	0.71	i
27	COC(=O)c1ccccc1NC(=O)CN1CCC(C(=O)c2ccc3c(c2)OCCO3)CC1	-0.54	i
28	Cn1c(=O)c2c(SCC(=O)NCCc3ccccc3)nc(C3CC3)nc2n(C)c1=O	1.2	i
29	CC(=O)O[C@]1(C(C)=O)CCC2C3CCC4=C/C(=N/OCC(=O)O)CC[C@]4(C)C3CC[C@@]21C (some centres not stated)	-0.43	i
30	Cc1nnsc1SCC(=O)O	1.2	i
31	C=CCN(C/C(=N\O)c1sc(C(=O)OCC)nc1C)c1cccc(Br)c1	0.76	i
32	COc1ccc2ccccc2c1C1NC(=O)NC(C)=C1[N+](=O)[O-] (configuration not stated)	-0.72	i
33	CCOC(=O)c1nc(S(C)(=O)=O)ncc1N1CCOCC1	1.2	i
34	Cc1cc(Br)ccc1N=C1C(=O)Nc2ccccc21	-1.6	i
35	CCc1ccccc1N(C)C(=O)CCc1nc(-c2ccc(C)cc2)no1	-1.1	i
36	Cc1ccccc1N=Cc1cc2c(cc1O)OC(N)=C(C#N)C2c1ccccc1 (configuration not stated)	2.2	i
37	O=S1(=O)[C@H]2CC3O[C@]2(C[C@@H]3c2ccc(F)cc2)CN1Cc1ccc(Cl)cc1	1.3	i
38	COc1ccc(OCC(=O)N/N=C2\CCCc3ccccc32)cc1	1.2	i
39	O=C(NCC1CC1)C1(C(F)(F)F)CC(CCCO)CCCO1 (configuration not stated)	-3.2	i
40	CCCc1nc2ccccc2c(=O)n1/N=C/c1ccc(O)c(O)c1	0.03	i
41	CN(C)CCNC(=S)Nc1ccc(-c2nc3ccccc3[nH]2)cc1	1.6	i
42	NS(=O)(=O)c1ccc(N2C(=O)C3CC=CCC3C2=O)cc1 (configuration not stated)	0.66	i
43	COc1cc2c(cc1NC(=O)c1ccccc1F)CCCC2	0.02	i
44	CS(=O)(=O)N(Cc1ccc(Cl)cc1)c1ccc(C(=O)N/N=C/c2cc3ccccc3nc2Cl)cc1	-1.3	i
45	COc1ccccc1NC(=O)c1ccccc1N(Cc1ccccc1)S(C)(=O)=O	-1.1	i
46	O=C(Nc1csc([N+](=O)[O-])c1)Nc1c(Cl)cccc1Cl	0.97	i
47	CCS(=O)(=O)c1nc(S(=O)(=O)c2ccc(C)cc2)c(N2CCN(C)CC2)s1	-1	i
48	COc1ccc(C)c(-n2c(N)cc(=O)n(Cc3ccccc3)c2=O)c1	0.89	i
49	CC(=O)Nc1nc(SCc2cccc3ccccc23)n[nH]1	-0.78	i
50	O=C(NC(C(=O)N/N=C/c1cc([N+](=O)[O-])ccc1O)c1n[nH]c(=O)c2ccccc12)c1ccccc1 (configuration not stated)	0.16	i
51	COc1ccc(C(=O)COC(=O)c2cc([N+](=O)[O-])ccc2N2CCOCC2)c(OC)c1	-0.02	i
52	COC(=O)CSC(C(=O)Nc1ccc(C)c(C)c1)c1ccccc1 (configuration not stated)	-1.3	i
53	CC1Cc2ccccc2N1C(=O)CSc1nc2ccccc2s1 (configuration not stated)	0.13	i
54	CCOc1ccc(OCCN2CCCCC2)cc1	0.85	i
55	CCOC(=O)[C@@H]1[C@H]2COc3cc(OC)ccc3[C@@H]2N2C(=O)N(c3cccc(Cl)c3)C(=O)[C@]12C	-1.3	i
56	COc1cc(O)c(C(CCN2CCCC(C)C2)c2ccc3c(c2)OCO3)c(OC)c1 (configuration not stated)	-2.4	i

# Continuation.
no.	mol	KCNQ2 inh baseline	KCNQ2 inh
57	CC(C)CC(NC(=O)C1CCCCC1)C(=O)N1CCN(c2ccccn2)CC1 (configuration not stated)	-0.23	i
58	CCn1c(=S)[nH]c2cc(C(=O)O)ccc21	0.02	i
59	COC(=O)Cn1cc([N+](=O)[O-])nc1C	-0.17	i
60	CC(/C=C/c1ccccc1)=N/NC(=O)CNC(=O)c1ccccc1F	2.6	i
61	O=C(N/N=C/c1cccnc1)c1ccc(NC(=O)c2cccc(Cl)c2)cc1	-1.8	i
62	Cc1coc2c(C)c3oc(=O)c(CCC(=O)NCc4ccccn4)c(C)c3cc12	-0.8	i
63	Cc1c(C(=O)Nc2nonc2-c2ccc(F)cc2)oc2ccc(F)cc12	0.97	i
64	C=CCCCN(Cc1ccccc1)S(=O)(=O)c1ccccc1Br	-0.06	i
65	O=C(NCCS(=O)(=O)N1CCN(c2ccccc2)CC1)C1CC(=O)N(c2ccccc2)C1 (configuration not stated)	-1.2	i
66	CC1=C(C(=O)N2CCOCC2)C(c2cc(C)ccc2C)NC(=S)N1 (configuration not stated)	-1	i
67	Cc1ccc2[nH]c(O)c(N=O)c2c1	1.5	i
68	CC(C)(C)OC(=O)CNC(=O)c1[nH]cnc1C(=O)NC1CCN(C(=O)OC(C)(C)C)CC1	-0.45	i
69	C=CCOC(=O)C1=C(C)NC(C)=C(C(=O)OCC=C)C1c1ccc(O)cc1	-0.03	i
70	CN(C(=O)COC(=O)C1CCN(S(=O)(=O)c2c(Cl)cccc2Cl)CC1)C1CCCCC1	-0.96	i
71	CCn1cc(/C=C(\NC(=O)c2ccccc2F)C(=O)NCCN2CCOCC2)c2ccccc21	0.51	i
72	Cc1cccc2cc(CN(C(=O)c3cnccn3)C3CCCCC3)c(Cl)nc12	1.4	i
73	CCc1ccc(C(O)(CC(C)C)C(CN2CCOCC2)c2ccccc2)cc1 (configuration not stated)	-1	i
74	CCOC(=O)c1ncn2c1CN(C)C(=O)c1cc(F)ccc1-2	-0.76	i
75	Cc1ccc2nc(SCC(=O)Nc3ccc(C)c([N+](=O)[O-])c3)[nH]c2c1	0.3	i
76	Cc1nonc1OCCn1c([N+](=O)[O-])cnc1C	1.7	i
77	COc1ccc(S(=O)(=O)Nc2ccc(NC(C)=O)cc2)cc1[N+](=O)[O-]	-1.9	i
78	Cc1nc(CS(=O)(=O)c2ccc(Cl)cc2)cc(N2CCOCC2)n1	-0.97	i
79	Cc1ccc(C)c(N2CCN(S(=O)(=O)c3ccc4c(c3)CCN4C(=O)CCC(=O)O)CC2)c1	-0.02	i
80	CCOC(=O)c1c(C)[nH]c(C)c1C(=O)CSc1nnc(-c2ccncc2)n1Cc1ccccc1	-0.48	i
81	O=C(CN1CCOCC1)N/N=C/c1c(O)ccc2ccccc12	2.2	i
82	CCN(Cc1nc2ccccc2c(=O)[nH]1)Cc1cc(=O)oc2cc(C)c(C)cc12	-3.7	i
83	COc1ccc(CN2CCN(CCc3ccccc3)C(CCO)C2)cc1Cn1cncn1 (configuration not stated)	-3	i
84	N/C(COc1ccc(C(=O)O)cc1)=N\O	-2.4	i
85	O=C(c1ccc([N+](=O)[O-])cc1)N1CCN(C(=O)c2cccnc2)CC1	1.5	i
86	Cc1cccc(Cc2c(C)[nH]c(=O)c(C#N)c2C)c1	0.54	i
87	CSCCC(NC(=O)COc1ccccc1)C(=O)OCCOc1ccc(F)cc1 (configuration not stated)	-0.01	i
88	COc1ccc(C(=O)Nc2nnc(-c3ccco3)s2)cc1	-1.6	i
89	CCOC(=O)c1c(N)sc(C(O)(C(F)(F)F)C(F)(F)F)c1-c1ccc(Cl)cc1	-1.4	i
90	COCC(C)N1CCC(Oc2ccc(C(=O)N3CCCC3)cc2)CC1 (configuration not stated)	-0.84	i
91	O=C(CCN1CCCC1Cc1ccccc1)c1ccc2c(c1)OCCO2 (configuration not stated)	1.6*	-7.9*
92	Cc1ccccc1N(C(=O)c1snc(C(N)=O)c1N)C(C(=O)NC1CCCC1)c1ccco1 (configuration not stated)	0.09	i
93	COC(=O)COc1ccc(C(c2c(C)[nH][nH]c2=O)c2c(C)[nH][nH]c2=O)cc1	0.93	i
94	CCCCN(C)CCNC(=O)c1cc(-c2cccnc2)nc2ccc(S(=O)(=O)N3CCC(C)CC3)cc12	0.03	i
95	CCN(CC)c1ccc(-c2nc3cnccn3c2NC2CCCC2)cc1	0.17	i
96	CC(=O)N1CCOc2ccc(S(=O)(=O)NCC3CCC(C(=O)Nc4ccc(C)cn4)CC3)cc21 (configuration not stated)	0.44	i
97	O=C(c1cnn2c(C(F)F)cc(-c3ccccc3)nc12)N1CCN2CCCC2C1 (configuration not stated)	-0.28	i
98	CC(C)c1ccc(NC(=O)/C(C#N)=C/c2ccncc2)cc1	-0.86	i
99	COC(=O)c1ccccc1NC(=O)c1ccc2c(c1)OCCCO2	0.29	i
100	CCCCC(=O)Nc1cccc(NC(=O)C(C)C)c1	-1.6	i
101	Cc1ccc(S(=O)(=O)NCCc2ccncc2)cc1C	0.6	i
102	CSCCC(NC(=O)C1CCCCC1)c1nc2ccccc2[nH]1 (configuration not stated)	1.1	i
103	Cc1ccc(CNC(=O)CCNS(=O)(=O)c2cccs2)cc1	-1.2	i
104	COc1ccccc1CNC(=O)C1CCC(CNc2c(N3CCCCC3)c(=O)c2=O)CC1 (configuration not stated)	-0.05	i
105	CCCc1ccc(OCC(O)CN2CCc3ccccc3C2)cc1 (configuration not stated)	-0.01	i
106	Cc1ccc2c(CC(=O)NNC(=O)c3ccncc3)coc2c1	-0.22	i
107	CSc1nnc(-c2ccccc2)c(=O)[nH]1	3	i
108	Cc1onc(-c2ccccc2)c1C(=O)Nc1ccc(Cl)cn1	-0.03	i
109	C=CCn1c(SCC(=O)NCc2ccc3c(c2)OCO3)nnc1C1CCCCC1	-1.3	i
110	Cc1ccccc1NC(=O)c1cccc(NC(=O)c2ccco2)c1	-1.6	i
111	COc1cccc(NC(=O)COc2ccc(Br)c(C)c2)c1	0.5	i
112	COc1ccc(N2CCN(CCCNC(=O)CN3C(=O)COc4ccccc43)CC2)cc1	1.8	i
113	COc1cc(C(=O)Oc2cc(C)cc(C)c2)cc(OC)c1OC	0.83	i
114	Cc1ccc2cc(C)c(N3CCN(c4ccccn4)CC3)nc2c1	-0.02	i
115	O=C(Nc1ccccc1)Nc1sccc1-c1nc2ccccc2s1	0.53	i
